Screening data deposited in PubChem BioAssay by several laboratories.
CSC inhib: blocks cancer stem cells; inhibition, % at 7.5 µM; 1.1% of 300,000 active; cancer stem cell-like cells viability, luminescence; AID 2717;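 active means mean at 75% or more and at least half the replicates too; inconclusive means mean and replicates disagree; tested in HMLE shEcad cells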;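 further: 0% = median of negative and 100% = median of positive control wells; the first replicate is given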
Rce1 inhib: yeast Ras-converting enzyme inhibition; calls only; 0.27% of 290,000 active; Q03530; yeast membranes, quenched prenylated peptide cleavage fluorescence;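 active means fall in fluorescence gain of 50% or more versus controls, with final raw signal at or below 3038400; inconclusive means same 50% fall but final raw signal above 3038400; inactive means fall in fluorescence gain under 50%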;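 further: plate controls were neutral control wells for no effect and wells lacking membranes for full effect; tested at 10 µM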
Env fusion inh: blocks HIV Env-driven cell-cell fusion. 1.1% of 360,000 active. HeLa-JRFL Env/CEM21 cell fusion, luciferase. inhibition, % at 12.3 µM. AID 651610;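 active means mean replicate inhibition score of at least 50 and every replicate individually at or above 50; inconclusive means only one of the two criteria met; inactive means mean below 50 and not all replicates reaching 50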;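 further: 0% = plate neutral controls and 100% = maraviroc near 300 nM; one replicate is shown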
eIF4H FP inh: inhibitors of RNA binding by human eIF4H; eIF4H fluorescence polarization binding assay; inhibition, % at 35 µM; 0.94% of 290,000 active; AID 2012;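 active means 50% or more with normal probe brightness, or confirmed in later tests; inconclusive means above 50% with abnormal brightness, or retests that disagree; inactive means below 50% or failed in later tests; about a fifth of its hits are not listed in these tables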;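 further: calls also rest on retests at 20 µM and on dose response follow-up; 0% = protein and probe with vehicle and 100% = probe without protein; strong numbers were not always called active; many hits fall short of the cut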
MT1-MMP act inh: MT1-MMP (human) activation inhibition | P50281 | HT1080 RFP-PRO-GFP cells, GFP/RFP ratio fluorescence, overnight; percent of plate control window, DMSO zero | GFP/RFP ratio change, % at 20 µM | 0.061% of 360,000 active | AID 651647;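 active means GFP/RFP ratio change of at least 30% with cell ATP level not reduced by more than half and red fluorescence within 50% of control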; further: strong numbers were not always called active
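Material – HT1080 RFP-PRO-GFP cells · Control set – DMSO wells and RFP-L50D-GFP cells · Incubation – overnight cell settling, then overnight compound exposure, 37 °C, 5% CO2 · Compound dosing – single-point 20 µM compound, 1% DMSO · Read-out – GFP/RFP fluorescence ratio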
Yeast UUG start: modulators of start codon recognition fidelity in yeast; 0.13% of 350,000 active; S. cerevisiae UUG-firefly luciferase reporter, luminescence/redox ratio; activity score, % at 18.7 µM;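 active means replicate mean at a twofold rise or more, about +100% in these data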;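 further: firefly luciferase made from a UUG start codon reports start codon fidelity; reporter light over untreated wells divided by growth signal over untreated wells; some hits fall short of that in this replicate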
PABP polyA inh: PABP-poly(A) binding inhibition | PABP-poly(A) RNA binding, fluorescence polarization | inhibition, % at 35 µM | 1% of 290,000 active | AID 2014;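 active means 50% or more with normal probe brightness, or confirmed in later tests; inconclusive means above 50% with abnormal brightness, or retests that disagree; inactive means below 50% or failed in later tests; about a fifth of its hits are not listed in these tables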;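 further: calls also rest on retests at 20 µM and on dose response follow-up; controls were probe without protein and protein plus probe with vehicle; some compounds called inactive have numbers as strong as hits; many hits fall short of the cut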
Target sequence (P11940 whole entry, looked up): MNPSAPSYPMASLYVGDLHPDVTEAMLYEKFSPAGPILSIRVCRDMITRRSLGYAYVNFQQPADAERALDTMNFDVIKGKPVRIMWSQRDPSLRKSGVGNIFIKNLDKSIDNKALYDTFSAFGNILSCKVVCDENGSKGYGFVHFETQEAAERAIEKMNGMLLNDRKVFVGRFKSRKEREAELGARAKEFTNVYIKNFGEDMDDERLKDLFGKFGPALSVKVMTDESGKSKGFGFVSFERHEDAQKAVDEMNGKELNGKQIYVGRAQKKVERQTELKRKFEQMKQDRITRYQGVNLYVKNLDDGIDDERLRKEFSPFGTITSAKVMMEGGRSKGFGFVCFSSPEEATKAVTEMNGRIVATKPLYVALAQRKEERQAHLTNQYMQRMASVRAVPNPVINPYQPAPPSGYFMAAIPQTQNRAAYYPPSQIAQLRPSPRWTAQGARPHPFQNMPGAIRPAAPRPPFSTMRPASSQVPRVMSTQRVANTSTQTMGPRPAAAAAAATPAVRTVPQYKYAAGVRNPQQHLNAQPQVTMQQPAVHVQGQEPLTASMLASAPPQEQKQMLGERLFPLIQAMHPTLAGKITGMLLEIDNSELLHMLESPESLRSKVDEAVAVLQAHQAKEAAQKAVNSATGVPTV
eIF4H FP inh retest: recorded beside eIF4H FP inh, whose call it bears; inhibition, %; compound at 20 µM; confirmation average;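 mean of two retest wells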
PABP polyA inh retest: further read-out of PABP polyA inh, marked with its call; inhibition, %; compound at 20 µM; confirmation repeats;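 mean of two retest wells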
MT1-MMP act inh RFP: second read-out of MT1-MMP act inh, no call of its own (marks repeat the call); RFP signal change, %; measured here: RFP expression control read;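 0 = vehicle wells; hits needed this value within 50% of zero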
The depositor's hits bear a star; i = inactive; ? = inconclusive; . = not tested or not shown.

SMILES	CSC inhib	Rce1 inhib	Env fusion inh	eIF4H FP inh	MT1-MMP act inh	MT1-MMP act inh RFP	Yeast UUG start	PABP polyA inh	others
S=c1[nH]nc(-c2ccc(Cl)cc2)n1Cc1ccccc1	-4	i	.	-11	0	6	-24	3
O=C(O)C1CSC(c2ccc3c(c2)OCO3)N1 (stereo unspecified)	.	i	-11	-1	-6	-2	1	9
Cc1ccc(-c2cn(-c3ccccc3)c(SCC(N)=O)n2)cc1C	-1	i	-2	-4	-10	-2	7	2
CC(SC(C)C(=O)NN=Cc1cccc(F)c1)C(=O)NN=Cc1cccc(F)c1 (stereo unspecified)	.	.	-110	.	3	-2	0	.
CC(CSc1nnnn1-c1ccccc1)Cn1c(N2CCCC2)nc2c1c(=O)[nH]c(=O)n2C (stereo unspecified)	-18	i	-7	-4	-9	-3	.	4
CC(O)(c1cccnc1)c1nc(-c2ccc(F)c(Cl)c2)cs1 (stereo unspecified)	.	.	-26	.	-2	-9	-11	.
CC(C)NC(=O)c1ccc(N(Cc2ccc(Cl)cc2)S(C)(=O)=O)cc1	-15	i	-43	2	-1	-2	-4	-3
CSC1=NCCN1S(=O)(=O)c1ccccc1	-6	.	-9	11	0	1	.	-11
CC(=O)N(Cc1ccccc1)c1ncc2c(n1)c(=O)c(C#N)c1ccccn12	15	i	-8	26	1	-2	-21	37
Cc1ccc(/C=N/NC(=O)c2ccccn2)s1	2	i	.	-3	-1	6	.	24
COc1ccc(S(=O)(=O)N(C)C[C@H]2Oc3c(NC(=O)Nc4ccccc4)cccc3C(=O)N([C@H](C)CO)C[C@@H]2C)cc1	.	.	-30	.	-1	-4	22	.
CN(C)c1ccc2nc3c(=O)[nH]c(=O)nc-3n(CC(O)C(O)C(O)CO)c2c1 (stereo unspecified)	24	i	-77	?	-21	60	2	?
CN(C)S(=O)(=O)N1CCC(CO)(CCc2ccccc2)CC1	1	i	12	-18	0	1	.	-9
O=C(O)CCCCC1CCSS1 (stereo unspecified)	-12	i	12	94	-12	5	-7	1	eIF4H FP inh retest=-3;PABP polyA inh retest=2
Nc1c(C(=O)OCC2CCCO2)c2nc3ccccc3nc2n1C1CCCCC1 (stereo unspecified)	16	i	.	-4	-36	-22	8	-3
CN(C)c1cccc(C(=O)N/N=C/c2ccsc2)c1	4	i	-1	-3	3	4	.	5
Cc1ccc2nc(N3CCN(C(=O)CCCC(=O)O)CC3)nc(-c3ccccc3)c2c1	5	i	5	-1	-10	-4	12	0
O=C(NC1CCCC1)C1CCCN1S(=O)(=O)c1cccc2cccnc12 (stereo unspecified)	-3	i	4	-3	1	2	0	2
COc1ccc(C(=O)COC(=O)C2COc3ccccc3O2)cc1F (stereo unspecified)	0	.	3	.	1	1	-20	.
C(=C\c1ccccc1)/CN1CCN(C(c2nnnn2C2CCCCC2)C2CC2)CC1 (stereo unspecified)	.	.	26	.	2	-3	-7	.
Cc1nc(N2CCc3ccccc3C2)[nH]c(=O)c1CCC(C)C	-8	i	.	-8	-8	-3	.	-2
COCC(C)N=C1NN=C(c2c[nH]c3ccccc23)CS1 (stereo unspecified)	-13	i	-32	5	-3	5	.	6
CCOC(=O)c1c(NC(=O)CCN2C(=O)c3cccc([N+](=O)[O-])c3C2=O)sc(C(=O)OC(C)C)c1C	5	i	19	6	0	-3	-2	10
CCOC(=O)C1=C(C)NC(=O)NC1c1ccc(OCCO)c(OC)c1 (stereo unspecified)	-9	i	.	10	3	4	4	8
CCc1nc2ccc(C(=O)NCCN3CCNC3=O)cn2c1N(C)CCC(C)C	.	.	20	.	6	0	7	.

Of the compounds above, these have an aryl thioether with sulfur outside any ring:
SMILES	CSC inhib	Rce1 inhib	Env fusion inh	eIF4H FP inh	MT1-MMP act inh	MT1-MMP act inh RFP	Yeast UUG start	PABP polyA inh	others
Cc1ccc(-c2cn(-c3ccccc3)c(SCC(N)=O)n2)cc1C	-1	i	-2	-4	-10	-2	7	2
CC(CSc1nnnn1-c1ccccc1)Cn1c(N2CCCC2)nc2c1c(=O)[nH]c(=O)n2C (stereo unspecified)	-18	i	-7	-4	-9	-3	.	4

Later entries:
SMILES	CSC inhib	Rce1 inhib	Env fusion inh	eIF4H FP inh	MT1-MMP act inh	MT1-MMP act inh RFP	Yeast UUG start	PABP polyA inh	others
COC(=O)c1ccc(NC(=O)NS(=O)(=O)c2ccc(C)cc2)cc1	-9	i	-72	6	4	0	7	7
CCN(CC)c1ccc2cc(S(=O)(=O)c3ccc(C)cc3)c(=O)oc2c1	99*	i	.	?	-19	-2	.	22
CCN(CC)c1ccc(S(=O)(=O)Nc2cc(Cl)ccc2Cl)cc1NC(=S)NC(=O)C1CCCC1	100*	i	32	-3	-24	-19	-17	-10
CC1(C(=O)Nc2cccc3c2CCCC3)CCN1C(=O)Cc1ccccc1Cl (stereo unspecified)	.	.	15	.	-2	-5	-4	.
CC(=O)c1ccc(NC(=O)C2C3C=CC(O3)C2C(=O)O)cc1 (stereo unspecified)	0	i	7	9	-2	-1	-17	-5
O=c1c2ccccc2c(/C=N/c2nnc(Cc3ccccc3)s2)c(O)n1-c1ccc(Cl)cn1	-10	i	-1	1	-6	0	.	-9
CC(C)c1ccc(COc2ccc(C(=O)N3CCOCC3)cc2)cc1	7	i	19	-8	2	-9	.	6
OCCNc1nc(Nc2ccccc2)nc2ccccc12	3	i	.	-6	9	-3	-17	-4
COc1cccc(-c2nnc(NC(=O)c3ccccc3Br)o2)c1	17	i	-10	0	4	3	-26	13
COc1cccc(CN2CCN(Cc3cc(OC)c(OC)cc3[N+](=O)[O-])CC2)c1	-14	i	.	-1	0	3	-4	6
O=C(Nc1ccnn1C1CCN(CCCC2CCCC2)CC1)c1ccccc1Cl	-2	i	2	61	1	4	-15	15	eIF4H FP inh retest=-3;PABP polyA inh retest=6
Nc1nc(SCC(=O)NCCOCCO)nc2sc3c(c12)CCCC3	.	i	-1	-7	-37	-2	.	5
c1ccc(-c2nnnn2CCOCCn2nnnc2-c2ccccc2)cc1	-12	i	.	-5	-1	10	-23	-9
C#CCOCCOCCOCCNc1nc(N2CCN(C(=O)[C@H](Cc3ccc(O)cc3)n3cc([C@@H](N)C(C)CC)nn3)CC2)nc(N2CCN(C(=O)[C@H](CCCCN)n3cc([C@@H](N)CC(C)C)nn3)CC2)n1 (stereo partly specified)	9	i	.	46	.	.	.	41
CCC(=O)N1CCN(c2ccc(NC(=S)NC(=O)COc3ccccc3)cc2)CC1	-2	i	-10	-3	5	-7	.	-3
CC(C)(C)n1nnnc1C(c1ccc(F)cc1)N(Cc1ccc(F)cc1)Cc1ccco1 (stereo unspecified)	24	i	124*	-4	-18	-25	-7	13
CC1CCC(C(C)C)C(OCC(O)C[N+]2(C)CCCCC2)C1 (stereo unspecified)	-15	i	4	3	-3	2	-10	59*
Cc1[nH]c2ccccc2c1C(=O)CSc1n[nH]c(N)n1	-3	i	5	8	-2	0	.	-20
COCCN(CC(=O)Nc1ccccc1)S(=O)(=O)c1ccc(S(=O)(=O)N2CCCC2)cc1	-17	i	.	1	8	-2	-25	-9
O=C(O)CCc1c(C(=O)O)[nH]c2ccccc12	-12	i	.	2	3	3	-34	7
O=c1c2c3nc4ccccc4nc3n(-c3ccc4c(c3)OCCO4)c2ncn1C1CCCC1	.	.	.	-10	-15	-3	-7	-17
COc1ccc(C(=O)N/C(=C\c2cn(S(=O)(=O)N(C)C)c3ccccc23)C(=O)NCCCN2CCOCC2)cc1	3	i	-14	-22	-2	2	.	-10
CN(C(=O)c1cc2c(s1)-c1ccccc1S(=O)(=O)C2)c1ccccc1	-3	i	7	-5	0	-5	-6	5
CCC(CC)c1ncc[nH]1	1	i	12	8	-4	1	-20	15
Cn1ccnc1SCC(=O)Nc1ccc2nc(SCC(=O)NC3CC3)sc2c1	4	i	.	2	.	.	.	-6
(cont.)
SMILES	CSC inhib	Rce1 inhib	Env fusion inh	eIF4H FP inh	MT1-MMP act inh	MT1-MMP act inh RFP	Yeast UUG start	PABP polyA inh	others
CN1CCC(=NNC(=O)C(=O)NC2CCCC2)CC1	.	i	.	8	-8	0	-10	-10
CCN1CCc2c(sc(NC(=O)C3COc4ccccc4O3)c2C(N)=O)C1 (stereo unspecified)	-6	i	-24	-10	-1	3	-11	8
COc1ccc(N2CCN(C(=O)Cn3nnc(-c4cccs4)n3)CC2)cc1	-9	i	.	3	-1	0	.	10
Cc1nnc(SCC(=O)N(C)C2CCCCC2)s1	-8	i	-2	-4	-2	0	.	0
CCN(CC)c1ccc(NC(=O)c2ccc(S(=O)(=O)N3CCOCC3)cc2)cc1	-12	.	-41	.	6	-4	-15	.
O=C(NCc1ccc(N2CCCC2=O)cc1)c1cn(CCc2ccccc2)nn1	8	i	.	-2	8	3	-9	6
COc1ccc(C2/C(=C(\O)c3cc(C)ccc3C)C(=O)C(=O)N2CCN(C)C)cc1OC (stereo unspecified)	2	.	-253	-2	-1	4	3	4
C=CCn1c(SC)nnc1-c1cccc([N+](=O)[O-])c1	7	i	.	-7	11	5	-3	-1
O=c1[nH]c(CSc2nnc(Cc3ccccc3)o2)nc2ccccc12	-6	i	7	-8	0	8	-12	?
O=C(OCC(=O)N1CCCCC1)c1ccccc1SCC(=O)N1CCCCC1	-10	i	-17	1	1	3	13	10
COc1ccc(/C(C)=N/N=C2/NC(=O)CC(C(=O)O)S2)cc1 (stereo unspecified)	-16	i	-9	-5	5	7	.	0
CN(CCCNC(=O)CN1C(=O)CC(C)(C)S(=O)(=O)c2ccccc21)C1CCCCC1	-8	i	.	-10	2	4	.	-2
OCc1n[nH]c(CO)n1	-6	i	.	5	5	6	-7	-3
O=C(Nc1cc2nn(-c3ccccc3)nc2cc1Cl)c1ccco1	-2	i	.	28*	7	11	-7	58*	eIF4H FP inh retest=80*;PABP polyA inh retest=50*
O=C(CCCN1C(=O)c2cccc3cccc(c23)C1=O)N1CCN(c2ccccc2O)CC1	0	i	0	21	-2	-5	.	-4
CCOC(=O)c1[nH]ncc1CN1CCCC(C(=O)c2ccc(OC)cc2C)C1 (stereo unspecified)	5	i	1	-1	0	1	.	-6
COc1cccc(CNc2ncn[nH]2)c1OCc1ccccc1F	8	i	4	-9	3	6	-9	-4
COC(=O)Nc1nnc(Cc2ccc(OC)cc2)s1	-6	i	9	-7	6	4	-50	2
O=c1ccc2ccc(Oc3ccc([N+](=O)[O-])cc3[N+](=O)[O-])cc2o1	59	i	.	11	.	.	.	-14
Cc1cccc(N(CC(=O)NC2CCCC2)C(=O)c2cc3cc4cccc(C)c4nc3s2)c1C	38	i	-16	3	-42	-32	-10	0
CC(=O)Nc1c(NC(C)C)c2ccccc2oc1=O	-5	i	-53	5	2	3	-2	0
CCc1ccc(C(=O)COC(=O)CNC(=O)C2CCCCC2)cc1	.	.	-3	.	2	1	-35	.
COc1ccc(C(=O)c2cnc(/N=C/N(C)C)s2)cc1	11	i	-94	-10	-2	1	.	-16
CCC(C(=O)NCCCN(CC)Cc1ccccc1)n1nc(C)c2sc3ccccc3c2c1=O (stereo unspecified)	-6	i	32	-4	3	1	-21	9
Cc1[nH]c(=O)c(C#N)cc1-c1csc(-c2ccccc2)n1	-4	i	48	-7	2	1	-27	8
CC(C(=O)OCc1nnc(-c2ccccc2)o1)N1C(=O)c2ccccc2C1=O (stereo unspecified)	5	i	.	-4	1	8	-12	-8
CCCCNCc1cc(OCC)c(OCC(N)=O)cc1Br	-6	i	-24	-4	9	6	-20	-16
COc1cccc(CNC(=O)CCC2CCCN(Cc3ccc4c(c3)CCO4)C2)c1 (stereo unspecified)	-7	i	7	5	-5	4	-12	2
